Screens from PubChem.
D2 agonist – agonists of human D2 dopamine receptor (beta-arrestin) | activation, % (test concentration not listed) | DiscoveRx PathHunter D2 beta-arrestin, luminescence, 90 min; 100% = 57 uM dopamine signal | P14416 | AID 624465 | 360,000 compounds, 0.084% hits; in the data active = activation above about 40%; inconclusive = about 15% to 40%; inactive = below about 15%; also: compound concentration not given in the record; the text of the record calls up to 30% inactive
Target sequence (P14416 whole entry, looked up): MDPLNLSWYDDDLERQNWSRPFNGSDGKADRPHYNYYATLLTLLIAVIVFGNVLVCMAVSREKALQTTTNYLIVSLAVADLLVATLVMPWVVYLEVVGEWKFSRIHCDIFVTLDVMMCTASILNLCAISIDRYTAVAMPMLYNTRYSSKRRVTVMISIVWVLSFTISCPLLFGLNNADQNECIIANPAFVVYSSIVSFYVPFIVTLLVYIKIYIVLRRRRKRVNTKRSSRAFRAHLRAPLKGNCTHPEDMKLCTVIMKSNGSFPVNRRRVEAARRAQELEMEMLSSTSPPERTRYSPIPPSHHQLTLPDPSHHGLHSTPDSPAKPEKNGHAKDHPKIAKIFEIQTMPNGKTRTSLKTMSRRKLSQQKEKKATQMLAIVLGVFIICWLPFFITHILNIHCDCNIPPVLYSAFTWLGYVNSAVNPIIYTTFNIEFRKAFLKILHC
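Agonist mode: compounds alone added to overnight-plated D2 PathHunter cells for 90 min at 37 C, with 57 uM final dopamine (EC100) defining full response. Beta-arrestin recruitment detected by chemiluminescent reagent, read after 1 h at ambient temperature.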
CtBP-E1A inh – inhibitors of CtBP/E1A interaction | activity change, % (no concentration beside the values) | AID 651724 | 340,000 compounds, 0.49% hits | AlphaScreen GST-E1A/His-CtBP binding, 1536-well; hits give low values; control for the full effect not named in the record; in the data active means activity change below about -65%; inconclusive means about -30% to -65%; inactive means above about -30%; also: % is scaled to controls: 0 for no effect and ±100 for the full control effect
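Protein mix (5X: 125 nM each GST-E1A, His-CtBP) was incubated with pinned compound 2 h at 37 deg C in dark, in 50 mM Tris pH 8.0 buffer with 300 mM NaCl. Glutathione donor and nickel acceptor beads followed; AlphaScreen signal read after 1 h.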
gsp ag – activates gsp, the McCune-Albright syndrome mutation; Potency, µM (doses to about 76.9 µM), for the others: at the top dose activation (cAMP increase), hits mostly activators; gsp mutant cells, cAMP HTRF, 30 min; control for the full effect not named in the record; 340,000 compounds, 0.13% hits; AID 624287; active = well fitted activation curve with a large enough effect; inconclusive = small, poorly fitted or top-dose-only effect, or another doubt; inactive = no such curve, though single readings can be large or run the other way; cell line not stated here;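 also: phosphodiesterase inhibitor Ro 20-1724 added with compounds to block cAMP breakdown; potency is read from the fitted curve at half-maximal effect; nearly all actives have a fitted effect of over 60% in size; about a fifth of the inactives were tested at one dose only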
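Cells in DMEM/10% FBS with G418 were pretreated with compounds in DMSO plus […] (300 uM stock) for 30 min at 37C. cAMP was measured by HTRF (cAMP-d2 plus anti-cAMP antibody-K) after 30 min at room temperature.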
Six1-Eya2 blk – inhibitors of human Six1/Eya2 interaction | activity change, % (concentration not given with the values) | 360,000 compounds, 0.56% hits | Q15475+O00167 | AID 651725 | AlphaScreen GST-Six1/His-Eya2 binding, biochemical; hits give low values; control for the full effect not named in the record; in the data active = activity change below about -65%; inconclusive = about -30% to -65%; inactive = above about -30%; also: % is scaled to controls: 0 for no effect and ±100 for the full control effect
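Homogeneous AlphaScreen proximity assay pairing GST-Six1 with His-tagged Eya2 (added as 5X mix: 250 nM and 500 nM) in 50 mM Tris pH 8.0, 300 mM NaCl, 1 mM TCEP. Glutathione donor and nickel acceptor beads; 1 h, 37 °C, dark.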
gsp antagonist – antagonists of gsp mutant (McCune-Albright syndrome); gsp-mutant cells, cAMP HTRF, 30 min; control for the full effect not named in the record; Potency, µM (titrated, usually from 76.9 µM), inactives show top-dose activity change, negative = inhibition, actives largely listed as inhibitors; 340,000 compounds, 0.4% hits; active = falling curve of any shape with a large fitted effect; inconclusive = falling curve, mostly with a smaller effect; inactive = flat or rising curve; cell line not stated here;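 also: intracellular cAMP measured with PDE inhibitor Ro 20-1724 present during compound exposure; potency is read from the fitted curve at half-maximal effect; % is scaled to controls: 0 for no effect and ±100 for the full control effect; nearly all actives have a fitted effect of over 65% in size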
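Cells in G418 medium, seeded 16-24 h, 37C; buffer exchange to DPBS + 1 mM CaCl2, 0.5 mM MgCl2, 0.05% BSA; cpds in DMSO + […] (300 uM stock), 30 min 37C; HTRF cAMP detection.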
D2 PAM – potentiates the human D2 dopamine receptor allosterically | AID 624464 | P14416 | 360,000 compounds, 0.23% hits | DiscoveRx D2 beta-arrestin cells, luminescence, 90 min; 100% = 57 uM dopamine signal | potentiation, % (no concentration beside the values); active = potentiation of 50% or more; inconclusive = 30% to 50%; inactive = 30% or less;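 also: compound concentration not given in the record; tested on top of an EC20 dose of dopamine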
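PathHunter beta-arrestin assay in DiscoveRx D2 cells. Compounds were added with an EC20 of dopamine (50 nM final) for 90 min at 37 deg C. Luminescence was read 1 h after detection reagent, with 57 uM dopamine as the EC100 control.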
Active calls of the source: *; ? = inconclusive; . = no result given; & = joins results of further samples; [ ] = another dose, or the depositor's remark.

smiles,D2 agonist,CtBP-E1A inh,gsp ag,Six1-Eya2 blk,gsp antagonist,D2 PAM
COC(=O)C1=C(c2ccc(F)cc2OCc2ccccc2)C[C@@H]2CC[C@H]1N2C(=O)NCc1cccc(OC)c1,-6.1,-10,-2%,-10,-19%,-2
CCCCn1c(N)c(N(CCOC)C(=O)CN2CC=C(c3ccccc3)CC2)c(=O)[nH]c1=O,-4.0,6,-3%[15.4 µM],?,-6%,-4
Cc1cc(=O)oc2cc(OCC(=O)N3C[C@H]4C[C@@H](C3)c3cccc(=O)n3C4)ccc12,-1.2,0,.,0,2%,9
CCNC(=O)[C@H]1O[C@@H](n2cnc3c(N)ncnc32)[C@H](O)[C@@H]1O,-3.2,-1,.,8,3%,3
CN(C)C(=O)Oc1ccc2c(=O)c(Oc3ccccc3Br)coc2c1,-5.1,10,-27%,3,-3%,-1
O=C(c1cc2c(s1)CCCC2)N1CCC2(CC1)OCCO2,2.4,2,-20%,2,5%,-6
CC(C)Oc1ccc(C2(C#N)CC[N+](C)(C)CC2)cc1,0.2,-2,-6%,6,1%,-12
C[C@]12CCC(=O)C=C1C=CC1C2CC[C@@]2(C)C1CC[C@@H]2O (some centres undefined),0.0,3,29%,1,5%,-2
Cc1cc(C)nc(N2Cc3ccccc3C2=N)n1,-1.0,-4,15%,-16,9%,-5
NS(=O)(=O)c1ccc(N2CCNCC2)cc1,-0.9,-3,9%,1,3%,0
COC(=O)N1Cc2ccccc2-n2nncc2C1,-5.6,0,?,7,.,2
O=C(c1cccc(Cl)c1)C1CCCN(Cc2cccc3cnccc23)C1 (centres undefined),-0.8,-4,4%[15.4 µM],-7,-23%,-15
C=COCCn1c(C)c(C(C)=O)c2cc(O)ccc21,0.2,1,5%[15.4 µM],-10,6%,-2
O=C(Nc1ccc(C(=O)O)cc1)Oc1ccc(N(CCCl)CCCl)cc1,4.6,3,.,5,.,5
COc1ccc(C)cc1NC1=NC(C)(C)CS1,-6.8,3,0%[15.4 µM],3,13%,-12
Cc1cc2ccccc2n1CCNC(=O)Cc1ccccc1,-0.1,-5,?,-16,-1%,-6
CC(=O)c1c(C)n(Cc2ccccc2Cl)c2ccc(O)cc12,-2.8,0,-5%[15.4 µM],6,4%,3
Cc1cccc(C(O)(C(=O)O)c2ccccc2)c1 (centres undefined),-1.7,5,7%,5,20%,-6
Brc1ccccc1CNCCc1ccc2c(c1)OCO2,-1.4,5,11%[15.4 µM],-14,10%,-14
Cc1ccccc1CN1CCN(C(=O)Cc2ccccc2)CC1,-3.2,-2,-20%,-7,7%,-11
CC(C)NS(=O)(=O)c1ccc(OCC(=O)N2CCN(C)CC2)cc1,-7.7,1,-28%,14,2%,-3
Cc1cccc(-n2c(C)nc3ccccc3c2=O)n1,-3.2,5,17%,-3,9%,-9
COc1ccccc1N1CCN(S(=O)(=O)c2ccc3c(c2)oc(=O)n3C)CC1,6.1,2,-44%[inhibitor],4,3%,2
O=C(N/N=C/c1c(O)n(C2CCCCC2)c(=S)[nH]c1=O)c1ccccc1,-7.1,-18,14%,-5,11%,-10
O=C(Cn1ncn2c(cc3cc(F)ccc32)c1=O)N1CCC2(CC1)OCCO2,0.6,0,-2%,1,-2%,2

Reformatted: results already given.
> CC(C)NS(=O)(=O)c1ccc(OCC(=O)N2CCN(C)CC2)cc1
  D2 agonist = -7.7
  CtBP-E1A inh = 1
  gsp ag = -28%
  Six1-Eya2 blk = 14
  gsp antagonist = 2%
  D2 PAM = -3
> Cc1cccc(-n2c(C)nc3ccccc3c2=O)n1
  D2 agonist = -3.2
  CtBP-E1A inh = 5
  gsp ag = 17%
  Six1-Eya2 blk = -3
  gsp antagonist = 9%
  D2 PAM = -9

Following part.
smiles,D2 agonist,CtBP-E1A inh,gsp ag,Six1-Eya2 blk,gsp antagonist,D2 PAM
COc1cc(/C=C2\C(=O)NC(=O)N(c3ccccc3)C2=O)cc(OC)c1O,2.6,-4,-1%,-1,-14%,16
CC(Cc1ccccc1)NC(=O)NC(C)Cc1ccccc1 (centres undefined),-4.8,7,-50%[inhibitor],1,-1%,-11
NCCc1ccc(S(=O)(=O)F)cc1,-6.0,7,.,-2,11%,-11
COc1cc(C2SCC(=O)Nc3c2c(C)nn3-c2ccccc2)cc(OC)c1OC (centres undefined),-2.9,0,-3%,0,-8%,-7
COP(=O)(C#Cc1ccccc1)C(O)c1ccc(Br)cc1 (centres undefined),-2.4,2,-1%[15.4 µM],-3,6%,-2
O=c1[nH]c(=S)n(-c2ccc(F)cc2)c(O)c1/C=N/N1CCOCC1,-3.2,0,1%,-1,-11%,-7
O=c1c2ccccc2nc(-c2ccccc2)n1-c1cccc(O)c1,-1.8,3,6%,0,-7%,3
O=C(COc1ccc(Cl)cc1)NCCc1cnc[nH]1,-11,-2,-17%,-3,9%,-12
Nc1ccc2c3c(cccc13)-c1ccccc1-2,9.3,26,?,10,14%,5
COC(=O)C1=C(c2ccc(OC(F)(F)F)cc2)C[C@@H]2CC[C@H]1N2C(=O)NCCCOC(C)C,0.9,0,.,6,-2%,-6
Cc1nc2cc(C(F)(F)F)ccc2n1C1CCN(Cc2nnnn2Cc2cccs2)CC1,-2.2,-1,15%,0,?,-21
COC(=O)c1ccc(CN2CCN(Cc3ccccc3)CC2)cc1,-1.4,-1,6%,-1,6%,-12
O=C(COc1ccccc1)N1CCN(Cc2c[nH]c3ccccc23)CC1,0.7,-3,8%,-2,2%,-34
Cn1c(C(=O)O)c(CC(=O)N2CCN(Cc3ccccc3)CC2)c2ccccc21,-0.9,-4,15%[15.4 µM],-2,2%,-7
OCC#CC[N+]1(CC#Cc2ccccc2)CCOCC1,-1.7,0,13%[15.4 µM],15,-12%,-5
CCc1ccccc1NC(=O)N1C[C@H]2C[C@@H](C1)c1cccc(=O)n1C2,-2.8,-11,.,-9,5%,-12
CN(C)P(=O)(N(C)C)N1CC1,-7.2,2,-12%,0,9%,-6
C=C[C@H]1CN2CC[C@H]1C[C@@H]2[C@@H](O)c1ccnc2ccccc12,7.5,-3,.,10,3%,-5
C[C@H]1CCCC(=O)CCC/C=C/c2cc(O)cc(O)c2C(=O)O1,-6.0,-14,.,-13,1%,7
O=c1[nH]c2ccccc2n1C1CCN(C(c2nnnn2C2CCCC2)C2CC2)CC1 (centres undefined),5.0,-2,.,4,.,-3
Cc1cccn2c(=O)c3c(nc12)N1CCc2ccccc2C1C1(C3)C(=O)NC(=O)N(C)C1=O (centres undefined),1.4,7,7%,3,-3%,9
O=c1[nH]c(=O)n(CCC2=CCCCC2)c(O)c1C=Nc1cccc(F)c1,-1.5,1,-12%,0,2%,-8
CCN1C(=O)C(=C/C=C/c2ccco2)C(=O)N(CC)C1=S,-3.3,3,23%,?,-3%,-8
COc1ccc(CCNCc2ccccn2)cc1OC,-0.8,-27,2%,?,5%,-13
S=C1Nc2ccccc2Sc2ccccc21,-4.5,8,6%[15.4 µM],-14,.,-20

Reprinted from the part before: 4 compounds, followed by the next part.
smiles,D2 agonist,CtBP-E1A inh,gsp ag,Six1-Eya2 blk,gsp antagonist,D2 PAM
O=c1[nH]c(=O)n(CCC2=CCCCC2)c(O)c1C=Nc1cccc(F)c1,-1.5,1,-12%,0,2%,-8
CCN1C(=O)C(=C/C=C/c2ccco2)C(=O)N(CC)C1=S,-3.3,3,23%,?,-3%,-8
COc1ccc(CCNCc2ccccn2)cc1OC,-0.8,-27,2%,?,5%,-13
S=C1Nc2ccccc2Sc2ccccc21,-4.5,8,6%[15.4 µM],-14,.,-20
CCOC(C(=O)OCCC[N+](C)(CC)CC)(c1ccccc1)c1ccccc1,-2.4,-4,16%,0,13%,-18
CNC(=O)Oc1c(C)[nH]ccc1=O,-5.1,-16,14%,-4,.,-12
Nc1ncc2[nH]cnc2n1,-7.2&4.8,0&1,.,-2&-1,?,2&-19
CN(C)C(=O)Oc1ccc2oc(=O)cc(-c3cc4ccccc4o3)c2c1,-4.6,-5,?,4,-10%,0
CC(NS(C)(=O)=O)c1nnc2n1-c1ccc(Br)cc1C(c1ccccc1Cl)=NC2 (centres undefined),-10,-20,17%,5,8%,-7
Cc1ccc(C(=O)O)cc1N=Nc1c(O)[nH]c(=O)[nH]c1=O,-6.1,-23,-4%[15.4 µM],-26,-33%,-15
CC(Cc1cnccn1)NCc1c(C(=O)N2CCCCCCC2)nc2ccc(Cl)cn12 (centres undefined),-0.8,3,-37%[inhibitor],3,-24%,-2
C=C1C(=O)O[C@@H]2C[C@@H](C)[C@@H]3C=CC(=O)[C@@]3(C)[C@@H](O)[C@H]12,-7.5,-6,.,-4,-12%,-28
O=c1[nH]c(=O)n(C2CCCCC2)c(O)c1C1NCCc2ccccc21 (centres undefined),0.1,0,?,9,8%[15.4 µM],-15
Cc1cc(/C=C2\C(=O)NC(=O)N(c3cccc(F)c3)C2=O)c(C)n1-c1ccc(C(=O)O)c(Cl)c1,-3.8,.,0%,-1,8%,-1
Clc1ccc(-c2nc3ccc(Cl)cn3c2CN2CCOCC2)cc1,-5.1,3,?,-9,-17%,-3
COC(=O)C1=C(c2ccc(-c3ccccc3)c(F)c2)C[C@@H]2CC[C@H]1N2C(=O)NCc1ccco1,-7.4,-10,-8%,-3,-19%,-14
COc1ccc(C)cc1NC1=NCCCS1,0.9,0,28%,-1,-13%,-8
Fc1ccc(N2CCN(Cc3cc4c(cc3Br)OCO4)CC2)cc1,-5.0,-11,18%[15.4 µM],-20,-4%,-30
C[N+](C)(C)CC1CCCc2ccccc2C1=O (centres undefined),-2.7,8,-11%,-1,9%,-17
O=C(Nc1ccc(F)cc1F)c1cccn(Cc2ccccc2)c1=O,0.6,4,-15%,1,-5%,-2
CC(Cc1ccccc1)N1C(=O)c2ccccc2C1=O (centres undefined),-5.7,21,-1%,17,4%,1
O=C(c1ccc2c(c1)OCO2)C1CCCN(Cc2ccccn2)C1 (centres undefined),-3.3,1,3%[15.4 µM],-5,10%,-18
O=c1c2ccccc2nc(CNCc2ccco2)n1-c1ccc(F)cc1,-4.4,-7,9%[15.4 µM],5,-6%,-6
Cc1ccc(OP(=O)(Nc2cccc(C)c2)Oc2ccc(C)cc2)cc1,-7.2,2,10%,-1,-9%,-19

An excerpt (hit frequency here may not be typical).
